Mtb H37Rv = Confirmatory growth inhibition assay against Mycobacterium tuberculosis H37Rv, potency (AID 1949) | inhibition, % at 10 µg/mL, or IC50 in µg/mL where a hit was titrated | most inactive calls were filed without a number and no value below 0 was filed | 1.6% of 100,000 active;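 active means confirmed in a dose series; inconclusive means about 50% or more but not retested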;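 further: bacteria grown 7 days with compound before Alamar blue readout; 0% = untreated bacteria and 100% = reference antibiotic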
Numbers without * were called inactive; i = inactive; ? = inconclusive. Only part of the results is shown; rates above refer to the full screens.

SMILES	Mtb H37Rv
CCOc1ccc(-n2c(-c3cccnc3)nc3ccccc3c2=O)cc1	i
Cc1cccc(-c2nc(C#N)c(N3CCOCC3)o2)c1	i
Cc1ccc(NC(=O)COc2cccc(C=O)c2)c(C)c1	26.8%
CCOC(=O)c1c(NC(=O)c2ccc(N(C)S(=O)(=O)c3ccccc3)cc2)sc(C)c1C	i
O=C(c1ccc(CSCc2ccccc2)cc1)N(Cc1ccccc1)Cc1ccccc1	i
O=C(Nc1ccc(Cl)cc1)N1CCc2ccccc2C1	i
CCOc1ccc(CC(=O)Nc2nccs2)cc1OCC	i
O=C(Nc1nnc(C(F)(F)F)s1)c1ccc(-c2ccccc2)cc1	i
CCCOc1ccc(Cl)cc1CNc1ccccc1	i
CCOC(=O)c1cc(-c2ccccc2)sc1NC(=O)c1ccc(OC(F)F)cc1	i
COc1ccc(CNCc2cccs2)cc1OC	i
O=C(Nc1cc(C(F)(F)F)ccc1N1CCOCC1)c1cncc(Br)c1	i
COc1ccc(NC(=O)c2cc(C)sc2NC(=O)c2cccc(Br)c2)cc1	2.3%
CCc1cc(=O)oc2cc(OC(=O)c3cc(OC)c(OC)c(OC)c3)ccc12	i
Cc1ccc(C(=O)NC(=S)Nc2ccccc2N2CCOCC2)cc1	i
Cc1ccc(SCCC(=O)NC2CC3CCC2C3)cc1 (stereo not drawn)	2.6%
Cc1cc(C)c(S(=O)(=O)N2CCOCC2)cc1C	i
CC(C)C(C(=O)Nc1ccc2c(c1)OCCO2)N1C(=O)c2ccccc2C1=O (stereo not drawn)	i
O=C1c2ccccc2C(=O)N1CCCCN(C(=O)c1ccccc1[N+](=O)[O-])c1ccc(Cl)cc1	i
C=CCn1c(SCC(=O)N2CCc3ccccc32)nc2sc3c(c2c1=O)CCC3	i
CCOC(=O)C12C(=O)Oc3ccc4ccccc4c3C1C2(CC)C(=O)c1ccccc1 (stereo not drawn)	i
COc1ccc(-c2cc(C(F)(F)F)n3nc(-c4ccccc4)cc3n2)cc1	2.0%
Cc1ccc(C)c(C(=O)N2CCN(C)CC2)c1	i
C=CCn1c(SCc2nc3ccccc3[nH]2)nc2sc3c(c2c1=O)CCC3	1.7%
O=C(c1cccnc1)N1CCN(Cc2ccc(Cl)cc2)CC1	i
CCc1c(C)c2cc(Cl)c(O)c(CN3CCCC(C)C3)c2oc1=O (stereo not drawn)	i
O=c1/c(=C/c2ccco2)sc2n1CN(c1cccc(C(F)(F)F)c1)CN=2	i
COc1ccc(NC(=O)CN2CCN(c3ccc(F)cc3)CC2)cc1	i
COC(=O)c1cccc(NC(=O)CSc2nc(C)cc(=O)[nH]2)c1	i
O=C(Nc1ccc(S(=O)(=O)NCc2ccccc2)cc1)c1ccccc1[N+](=O)[O-]	i
CN(C(=O)CCN1C(=O)C2C3C=CC(C3)C2C1=O)c1ccccc1 (stereo not drawn)	i
CCOC(=O)c1ccc(NC(=S)Nc2ccc(C(=O)N3CCOCC3)cc2)cc1	1.4%
O=C1c2ccccc2C(O)(c2ccccc2)N1c1ccc(N2CCOCC2)cc1 (stereo not drawn)	i
Nc1ccc(C(=O)CC2(O)C(=O)Nc3ccc(F)cc32)cc1 (stereo not drawn)	i
Cc1cccn2c(=O)c3cc(C(=O)NCC4CCCO4)c(=N)n(CCN4CCOCC4)c3nc12 (stereo not drawn)	i
O=c1cc(-c2ccccc2)[nH]c(=S)[nH]1	i
CCCc1sc(NCc2cccc(OC)c2O)nc1-c1cc(C)ccc1C	24.6%
CC1CC(C)CN(CCOc2cccc3ccccc23)C1 (stereo not drawn)	i
O=C(Nc1ccc2oc(-c3ccccc3F)nc2c1)c1cncc(Br)c1	i
Cc1ccc(S(=O)(=O)Nc2nc3ccccc3s2)cc1	i
O=C(O)c1cn(-c2ccccc2)nc1-c1cc2ccccc2o1	1.8%
O=C(CCc1ccccc1)Nc1nnc(SCC(=O)N2CCN(Cc3ccccc3)CC2)s1	i
c1nnc2c3c4c(sc3ncn12)CCCC4	i
CC1CCCN(c2ccc(-n3cnnn3)cc2[N+](=O)[O-])C1 (stereo not drawn)	1.5%
Cc1nn2c3cc(N4CCOCC4)ccc3nc2c2ccccc12	i
CNS(=O)(=O)c1cccc2ccccc12	i
COC(=O)NNC(=O)c1ccccc1OC	i
CCc1cccc(CC)c1NC(=O)CN(Cc1ccccc1)S(C)(=O)=O	3.3%
COC(=O)c1ccc(NC(=O)C(=O)N2CCCC2)cc1	i
O=C(Cc1cccc2ccccc12)N1CCCc2ccccc21	6.4%
(listing goes on)
SMILES	Mtb H37Rv
COc1ccc(-c2n[nH]c(=S)n2-c2ccccc2)cc1C	i
Cc1cccc(N(CC(=O)Nc2ccccc2C(=O)NC(C)C)S(C)(=O)=O)c1C	i
COc1cccc(NC(=S)NC(=O)C(c2ccccc2)c2ccccc2)c1	i
FC(F)(F)c1ccccc1NC(=S)Nc1nn(Cc2ccc(Cl)cc2Cl)cc1Cl	i
COCCCNc1ncnc2c1cnn2-c1ccccc1	7.4%
CC(C)(C)c1ccc(OCC(=O)Nc2ccncc2)c(Br)c1	11.4%
Cc1ccc(C)c(NC(=S)Nc2cccc(Cl)c2)c1	i
CCn1c(CNC(=O)c2ccc(OC)c(OC)c2)nnc1SCC(=O)Nc1sc2c(c1C#N)CCCC2	0.4%
Cc1cc(Br)ccc1OCC(=O)Nc1ccc(S(=O)(=O)N2CCCCC2)cc1	7.1%
COCCCNCCCOc1cc(C)ccc1C(C)(C)C	i
O=C(CC1NC(=O)NC1=O)Nc1ccc(Cl)cc1 (stereo not drawn)	i
COC(=O)c1ccc(C(=O)OC)c(NC(=O)c2cc(-c3ccco3)nc3ccccc23)c1	i
O=C1NC(=O)C(Cc2cccs2)C(=O)N1	i
COc1c(C)cc(Br)cc1C(=O)Nc1ccc(N2CCOCC2)c(Cl)c1	i
CCOc1ccc(C2C(C(=O)OC)=C(C)Nc3nnnn32)cc1OC (stereo not drawn)	i
CCOc1ccc2nc(NC(=O)CSc3nc(SC)ns3)sc2c1	?
Cc1ccc(-c2csc3nc(SCC(N)=O)n(Cc4ccccc4)c(=O)c23)cc1	34.7%
COC(=O)c1c(-c2cccs2)csc1NC(=O)CSc1ncnc2sc(C)c(C)c12	10.2%
COc1ccc(Cl)cc1NC(=O)CSc1ncccn1	i
CC(C)Oc1ccc(C(CC#N)C(C)C)cc1 (stereo not drawn)	i
C=CCn1c(CC(=O)Nc2cccc(OC)c2)nnc1SCC(=O)NCCc1ccccc1	i
Cc1ccc(SC(C)C(=O)Nc2c(C)n(C)n(-c3ccccc3)c2=O)cc1 (stereo not drawn)	i
O=C(Nc1ccc(F)cc1)C1CCN(S(=O)(=O)c2ccc(Cl)cc2)CC1	i
COc1ccc(Br)cc1S(=O)(=O)NCc1ccccn1	i
Cc1cc(=O)oc2cc(NC(=S)NNC(=O)c3cn(C)c4ccccc34)ccc12	i
Cc1ccc(OCC(=O)Nc2ccc([N+](=O)[O-])cn2)cc1C	i
Cc1cc(NS(=O)(=O)c2ccc(NC(=O)C(C)(C)C)cc2)no1	i
Cc1ccc(NC(=O)CC2COc3ccccc3O2)cc1 (stereo not drawn)	i
c1ccc2sc(NC3=NCN(Cc4ccc5c(c4)OCO5)CN3)nc2c1	1.52µg/mL*
Cn1c(Cc2ccccc2)nnc1SCc1ccc(C#N)cc1Cl	i
O=C(CSCc1ccc(Cl)cc1)Nc1ccc(C(=O)Nc2nccs2)cc1	i
OCc1cn(-c2ccccc2)nc1-c1ccc2c(c1)OCCO2	6.9µg/mL*
Cc1cccc(C)c1N1CCN(S(=O)(=O)N2CCCCC2)CC1	i
CCOc1ccccc1NC(=O)CN(c1ccc(C)cc1)S(=O)(=O)c1ccc(SC)cc1	10.9%
Clc1ccc(C2=CC(c3ccccc3Cl)n3ncnc3N2)cc1 (stereo not drawn)	10.0%
O=S(=O)(Nc1ccc(C(F)(F)F)cc1)c1cccs1	i
COCCSc1ccccc1C(=O)Nc1nnc(Cc2ccc(Cl)cc2)s1	i
CS(=O)(=O)N(CC(=O)N(Cc1ccccc1)Cc1ccccc1)c1cc(Cl)ccc1Cl	2.7%
Cc1ccc(NS(=O)(=O)c2ccc(OCC(=O)N3CCOCC3)cc2)cc1	i
Cc1c(C)c2c(cc(C)c3c(-c4ccc(F)cc4)coc32)oc1=O	i
Cc1ccc(C)n1-c1ccc(N2CCOCC2)cc1	i
COc1ccc(C(=O)Nc2ccc(C(=O)O)cc2)c(OC)c1	i
S=C(c1ccc(OCc2ccc(Cl)c(Cl)c2)cc1)N1CCCC1	3.0%
CC(C)COc1ccc(C(=O)Nc2ccc(S(=O)(=O)Nc3ncccn3)cc2)cc1	2.5%
C=CCn1c(SCC(=O)Nc2nc3ccccc3s2)nnc1C(C)NC(=O)c1ccc(Cl)cc1Cl (stereo not drawn)	i
Cc1ccc(NC(=S)NC(=O)c2c(-c3ccccc3Cl)noc2C)cc1	i
O=C(CCCc1ccccc1)Nc1cccc(C(=O)O)c1	i
Cn1c(=O)c2c(ncn2Cc2ccc(Cl)cc2)n(C)c1=O	i
Cc1ccc(/C=C/c2nc3ccccc3c(=O)n2-c2cccc(C)c2)cc1	i
Cc1cc(F)c(F)c(C(=O)NC2CC2)c1Cl	3.7%
(continued)
SMILES	Mtb H37Rv
Cc1ccc(C(=O)Oc2ccc3c4c(c(=O)oc3c2)CCC4)cc1C	i
Cc1ccc(NC(=O)CSc2ccc(F)cc2)c(C)c1	i
COc1ccc(S(=O)(=O)N2CCN(C)CC2)cc1OC	i
O=C(O)c1cc(-n2nnnc2SCc2ccccc2F)ccc1Cl	i
CCOC(=O)N1CCN(C(=S)Nc2ccccc2Cl)CC1	7.5%
CC1CN(CCCCOc2cccc(Oc3ccccc3)c2)CC(C)O1 (stereo not drawn)	10.4%
CCCCc1c(C)nc2ccc(Br)cc2c1SCCC(=O)O	i
Cc1cc2nn(-c3ccccc3)nc2cc1NC(=O)c1ccccc1	i
O=C(c1csc2ccccc12)n1cccn1	17.0%
CC(C)NC(=O)c1ccccc1NC(=O)Cc1ccc(Cl)cc1	0.3%
CCOc1ccc(Br)cc1C(=O)NC1CCCCC1	i
O=C(CN(c1cccc([N+](=O)[O-])c1)S(=O)(=O)c1ccccc1)NCCC1=CCCCC1	3.6%
CCOc1ccccc1NC(=O)c1ccc(C(=O)Nc2ccccc2OCC)nc1	i
Cc1ccc(-c2nc3ccccc3o2)cc1NC(=O)c1ccccc1Br	i
CC(C)Cc1nnc(NS(=O)(=O)c2ccc(Cl)cc2)s1	i
O=C1c2[nH]nc(-c3ccccc3)c2C(c2cccc([N+](=O)[O-])c2)N1c1ccccc1 (stereo not drawn)	38.2%
Cc1ccc(-c2csc3ncn(Cc4ccc(Br)cc4)c(=O)c23)cc1C	0.8%
COC(=O)c1ccc2c(=O)n(Cc3ccccc3OC)c(=S)[nH]c2c1	2.3%
O=[N+]([O-])c1ccc(-c2cnc(-c3ccc(Br)cc3)nc2)cc1	i
CCC(C)c1ccc(NC(=S)N2CCN(Cc3cccc(OC)c3)CC2)cc1 (stereo not drawn)	14.5%
Cc1ccc(Nc2ncnc3ccc(Br)cc23)cc1Cl	35.7%
Cc1nnc(SCC(=O)N2CCCCC2)s1	i
Cc1ccccc1CN(CC(=O)Nc1cccc(C)c1C)S(=O)(=O)c1ccc(Cl)cc1	i
CCc1c(O)nc(SCC(=O)Nc2nc3ccc(C(=O)OC)cc3s2)[nH]c1=O	i
CC(=O)c1cccc(NC(=S)Nc2ccc(Br)cn2)c1	1.2%
CC(=O)Nc1nc(-c2ccccc2)nc2c1c(=O)oc1ccccc12	i
c1ccc(-c2csc3ncn4nnnc4c23)cc1	i
COc1ccccc1N1CC(C(=O)O)CC1=O (stereo not drawn)	i
CCOc1cc(CO)ccc1OCc1cccc([N+](=O)[O-])c1	1.1%
CS(=O)(=O)c1ccc(N2CCN(C3CC(=O)N(Cc4ccccc4)C3=O)CC2)cc1 (stereo not drawn)	i
COc1ccc(Cc2nnc(NC(=O)c3ccc(-c4ccccc4)cc3)s2)cc1	i
CCc1ccccc1N(CC(=O)Nc1cccc(SC)c1)S(=O)(=O)c1ccc(C)cc1	i
CC(C)C(=O)Nc1cccc(NC(=O)COc2ccc([N+](=O)[O-])cc2)c1	i
CCOC(=O)c1c(CC(C)C)csc1NC(C)=O	i
O=C(CSc1nc2ccccc2c(=O)n1-c1ccccc1)N1CCN(C(=O)c2ccccc2)CC1	i
O=C(Nc1cccc(NC(=O)c2ccco2)c1)c1cccc(-c2cc3ccccc3oc2=O)c1	0.0%
CCn1c(CCc2ccccc2)nnc1SCC(=O)Nc1ccc(OC)cc1	i
Cc1cccc(CN2CCN(C(=O)c3ccccc3)CC2)c1	i
CCC(=O)N(CCC(c1ccccc1)c1ccco1)Cc1ccc(F)cc1 (stereo not drawn)	1.1%

Part of the list above, with each value named.
C=CCn1c(SCc2nc3ccccc3[nH]2)nc2sc3c(c2c1=O)CCC3
  Mtb H37Rv: 1.7%
O=C(O)c1cn(-c2ccccc2)nc1-c1cc2ccccc2o1
  Mtb H37Rv: 1.8%

Filtered by structure, those above with a thiophene ring, fused or not
SMILES	Mtb H37Rv
CCOC(=O)c1c(NC(=O)c2ccc(N(C)S(=O)(=O)c3ccccc3)cc2)sc(C)c1C	i
CCOC(=O)c1cc(-c2ccccc2)sc1NC(=O)c1ccc(OC(F)F)cc1	i
COc1ccc(CNCc2cccs2)cc1OC	i
COc1ccc(NC(=O)c2cc(C)sc2NC(=O)c2cccc(Br)c2)cc1	2.3%
C=CCn1c(SCC(=O)N2CCc3ccccc32)nc2sc3c(c2c1=O)CCC3	i
C=CCn1c(SCc2nc3ccccc3[nH]2)nc2sc3c(c2c1=O)CCC3	1.7%
c1nnc2c3c4c(sc3ncn12)CCCC4	i
CCn1c(CNC(=O)c2ccc(OC)c(OC)c2)nnc1SCC(=O)Nc1sc2c(c1C#N)CCCC2	0.4%
O=C1NC(=O)C(Cc2cccs2)C(=O)N1	i
Cc1ccc(-c2csc3nc(SCC(N)=O)n(Cc4ccccc4)c(=O)c23)cc1	34.7%
COC(=O)c1c(-c2cccs2)csc1NC(=O)CSc1ncnc2sc(C)c(C)c12	10.2%
O=S(=O)(Nc1ccc(C(F)(F)F)cc1)c1cccs1	i
O=C(c1csc2ccccc12)n1cccn1	17.0%
Cc1ccc(-c2csc3ncn(Cc4ccc(Br)cc4)c(=O)c23)cc1C	0.8%
c1ccc(-c2csc3ncn4nnnc4c23)cc1	i
CCOC(=O)c1c(CC(C)C)csc1NC(C)=O	i
